# PrP UTR inh – suppresses PrP 5' UTR mRNA reporter expression. cell-based PrP 5' UTR mRNA reporter, plate reader. inhibition, % (test concentration not listed). hit rate 0.35% among 340,000;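 active = every replicate at 50% or more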;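 note: 0 = median of the neutral control wells; tested in H4 reporter cells; numbers are from one replicate; inactives centre near -14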
# ugtP null kill – compounds lethal to S. aureus RN4220 ugtP deletion mutant; OD600 growth, 16 h; some inactives read as strong as hits; growth inhibition, % (test concentration not listed); hit rate 0.54% among 330,000;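 active = z-score under -3 and OD600 up to 0.15 on both plates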;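 note: plate controls were untreated wells for no effect and antibiotic for full effect; wells of about 80 µL received 100 nL stock; the first replicate is given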
# Mtb hypoxia rep – reduces hypoxia-regulated biosensor signal in M. tuberculosis; M. tuberculosis hypoxia-regulated fluorescent reporter, fluorescence; fluorescence inhibition, % (no concentration beside the values); hit rate 0.1% among 300,000; AID 1159583;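 active = 35 to 45% if threefold the growth effect, above 45% if 1.5-fold the growth effect; inactive = the rest, general growth blockers included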;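 note: wells of about 50 µL received 100 nL stock; 0% = vehicle wells and 100% = reference inhibitor wells; whole bacteria with a GFP reporter of the hypoxia response; strong numbers were not always called active; many hits fall short of the cut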
# Autofluor counter – counter-screen for toxin protease inhibitors: compound fluorescence; compound autofluorescence counterscreen, microsphere flow cytometry; active compounds read high; fluorescence intensity (no concentration beside the values); hit rate 3.1% among 360,000; AID 624483;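 active = at least 3 SD above the mean of all compounds, about 16000 in these data; inconclusive = too few beads counted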;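 note: 100 nL of 1 mM stock went into each well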
# RN4220 kill – kills Staphylococcus aureus RN4220; S. aureus RN4220 growth, OD600, 16 h; inhibition, % (no concentration beside the values); hit rate 0.33% among 330,000;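 active = z-score of -3 or lower and OD600 up to 0.18 on both plates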;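 note: plate controls were untreated cells for no effect and reference antibiotic for full effect; stock transfer was 100 nL into about 80 µL; one replicate is shown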
# BJeLR viability – kills HRASV12-expressing BJeLR cells. hit rate 0.17% among 300,000. BJeLR (HRASV12) viability, CellTiter-Glo ATP luminescence, 48 h; reference of the scale not given here. inhibition, % (concentration not given with the values);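 active = replicate mean above 50%; inconclusive = above 50% but judged a plate artefact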;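 note: 50 nL library stock added to about 25 µL; numbers are from one replicate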
# Mtb hypoxia rep growth – second read-out of Mtb hypoxia rep, no call of its own (marks repeat the call); growth inhibition, %; measured here: M. tuberculosis growth (absorbance);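 0% = vehicle and 100% = reference antibiotic; read after six days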
# Starred values were filed as active, the others as inactive; ? = inconclusive; . = not tested or not shown; & = joins results of further samples; ! = a repeat was not active.
SMILES,PrP UTR inh,ugtP null kill,Mtb hypoxia rep,Mtb hypoxia rep growth,Autofluor counter,RN4220 kill,BJeLR viability
O=C(Nc1ccc([N+](=O)[O-])cn1)c1ccc(Br)o1,-42.4,-1.3,-3.0,-11.3,2644,-1.5,7.1
O=[N+]([O-])c1ccc(O)c(/C=N/NC(=S)Nc2ccc(Cl)cc2Cl)c1,0.0,.,.,.,4800,.,-13.3
Cc1c(C(=O)OCC(=O)NC2CC2)oc2ccc(Br)cc12,-11.1,-2.8,6.3,-1.5,5429,1.3,.
CC(=O)c1sc(NC(=O)CCNC(=O)c2ccco2)nc1-c1ccccc1,-15.8,-0.4,8.6,2.9,4583,4.3,-6.8
C=CCn1c(N)c(-c2nc3ccccc3n2C)sc1=S,-13.0,-2.2,-0.4,10.7,22610*,2.8,0.8
COc1cc(/C=C/c2cc[n+](C)cc2)ccc1OCC(=O)Nc1ccc(Cl)c(Cl)c1,-4.1,100.1*,15.6,31.6,6112,78.0,4.8
Cc1cc(C)cc(OCC(=O)NNC(=S)NC(=O)C2CC2)c1,-33.7,33.4,3.1,-1.0,5913,68.2,-13.4
O=C(Nc1ccccc1)OCCCCOC(=O)Nc1ccccc1,-3.8,2.3,6.9,7.5,2935,4.3,.
Cc1cccc2[nH]c(SCC(=O)O)nc12,-75.0,0.3,-7.5,-0.3,4047,2.2,3.1
CC(=O)c1cccc(NC(=O)c2cc(C)no2)c1,-23.8,12.0,8.4,2.3,5742,7.0,0.2
O=C1NCCN1CCNS(=O)(=O)c1cc(C(F)(F)F)cc(C(F)(F)F)c1,-2.4,2.3,5.6,18.7,4475,-0.4,12.4
O=C(COc1ccc(Cl)cc1Cl)NCc1ccco1,-14.8,3.6,8.1,6.1,3342,-4.9,-12.0
O=C(c1cnn2c(C(F)F)cc(C3CC3)nc12)N1CCc2ccccc2C1,-8.5,3.8,.,.,3674,6.2,-7.1
c1ccc(C2(c3ccccc3)OCC(Cn3cncn3)O2)cc1 (centres undefined),-11.8,1.9,.,.,2748,0.2,5.5
O=C(c1ccccc1)c1cnc(Nc2ccc(Cl)c(Cl)c2)s1,-24.1,-7.7,-2.3,-3.7,11787,-2.7,-5.8
O=C(O)c1cccnc1Sc1ccc(Br)cc1,-4.4,11.4,3.8,11.4,3966,4.1,-2.2
O=[N+]([O-])c1ccc(S(=O)(=O)Nc2ccc3c(c2)OCCO3)cc1,-11.9,8.0,9.5,-7.4,4314,7.1,-1.8
Cc1cc(C)c(NC(=O)CN2CCN3CCCC3C2)c(C)c1 (centres undefined),-6.6&-14.1,1.7,0.2,7.1,21570*!,1.8,-0.5
COc1ccc(-c2onc(C)c2-c2cscn2)c(O)c1,-26.8,-3.1,-1.4,-3.7,3446,-2.2,1.7
Cc1nnc(SCC(=O)c2ccccc2F)n1Cc1ccccc1,-20.1,12.6,8.6,13.0,4644,5.9,-6.0

# Part of the list above, with each value named:
Cc1cc(C)cc(OCC(=O)NNC(=S)NC(=O)C2CC2)c1
  PrP UTR inh: -33.7	ugtP null kill: 33.4	Mtb hypoxia rep: 3.1	Mtb hypoxia rep growth: -1.0	Autofluor counter: 5913	RN4220 kill: 68.2	BJeLR viability: -13.4
O=C(Nc1ccccc1)OCCCCOC(=O)Nc1ccccc1
  PrP UTR inh: -3.8	ugtP null kill: 2.3	Mtb hypoxia rep: 6.9	Mtb hypoxia rep growth: 7.5	Autofluor counter: 2935	RN4220 kill: 4.3	BJeLR viability: .
Cc1cccc2[nH]c(SCC(=O)O)nc12
  PrP UTR inh: -75.0	ugtP null kill: 0.3	Mtb hypoxia rep: -7.5	Mtb hypoxia rep growth: -0.3	Autofluor counter: 4047	RN4220 kill: 2.2	BJeLR viability: 3.1
CC(=O)c1cccc(NC(=O)c2cc(C)no2)c1
  PrP UTR inh: -23.8	ugtP null kill: 12.0	Mtb hypoxia rep: 8.4	Mtb hypoxia rep growth: 2.3	Autofluor counter: 5742	RN4220 kill: 7.0	BJeLR viability: 0.2

# The main list resumes with the 3 entries that preceded the break.
SMILES,PrP UTR inh,ugtP null kill,Mtb hypoxia rep,Mtb hypoxia rep growth,Autofluor counter,RN4220 kill,BJeLR viability
Cc1cc(C)c(NC(=O)CN2CCN3CCCC3C2)c(C)c1 (centres undefined),-6.6&-14.1,1.7,0.2,7.1,21570*!,1.8,-0.5
COc1ccc(-c2onc(C)c2-c2cscn2)c(O)c1,-26.8,-3.1,-1.4,-3.7,3446,-2.2,1.7
Cc1nnc(SCC(=O)c2ccccc2F)n1Cc1ccccc1,-20.1,12.6,8.6,13.0,4644,5.9,-6.0
CCNc1nc(NCC)nc(NN=Cc2ccc(Br)cc2)n1,.,9.8,-0.6,-1.1,.,1.7,.
Cc1ccc(C2=N/C(=C\c3cccs3)C(=O)N2Nc2ccccc2)cc1,0.7,11.5,.,.,2321,10.7,-5.7
CC(C)NC(=O)CCCOc1ccc(Cl)cc1Cl,-30.4,-1.1,2.6,10.3,5786,3.7,1.5
Cc1ccc2sc(NC(=O)CN3C(=O)c4ccccc4C3=O)nc2c1C,-20.9,4.0,-0.1,-0.9,4378,0.3,1.8
CCCCn1c(SCc2nc(N)nc(Nc3ccccc3C)n2)nc2ccccc2c1=O,15.9,-4.6,.,.,2328,-3.3,1.1
C[C@H](NC(N)=O)C(=O)Nc1ccc(OCc2ccccc2)cc1,-41.2,2.9,12.8,12.9,4068,7.1,1.5
CCC(=O)N1CCc2cc(S(=O)(=O)CCC(=O)NCc3ccc4c(c3)OCO4)ccc21,-21.1,5.2,.,.,4043,4.3,-9.1
CNC(=S)Nc1ccc(Cc2ccncc2)cc1,12.8,2.3,.,.,.,2.1,-15.3
COC(=O)c1cc(Br)ccc1NC(=O)Nc1ccccc1,-7.2,7.2,-0.8,-2.6,9313,3.7,0.9
Fc1ccc2cnc(-c3ccccc3)c(-c3cc(C(F)(F)F)cc(C(F)(F)F)c3)c2c1,-16.6,21.7,14.3,16.5,3361,-9.5,.
N#C/C(=C\c1cc(Cl)ccc1O)C(=O)NC1CCCCC1,-7.6,-9.3,-5.7,8.2,10719,-0.9,-1.2
CNCC(O)c1ccc(OC(=O)C(C)(C)C)c(OC(=O)C(C)(C)C)c1 (centres undefined),-8.3,-3.1,9.9,-2.9,6372,3.2,.
Cc1noc(C)c1CSc1ccccc1C(=O)OC(C)C(N)=O (centres undefined),-14.6,13.3,-0.1,-3.3,5736,-1.4,-10.9
O=C(COc1cccc(Oc2ccccc2)c1)Nc1ccc(SC(F)F)cc1,-1.9,-1.0,-4.3,1.3,5367,-9.3,-10.6
CC(C)N1CC(C(=O)Nc2ccccc2)CC1=O (centres undefined),-17.5,5.0,7.2,-1.8,2510,-0.7,-9.3
CCOc1ccc(C(CCC(=O)O)=NNC(=S)NC(C)C)cc1,.,7.3,7.2,-3.5,.,3.9,.
Cc1nn(CC(=O)NC2CCCC2)c(C)c1[N+](=O)[O-],-31.4,2.4,0.1,0.2,5929,3.6,.
Cc1cc(C(=O)N2CCN(c3ccc([N+](=O)[O-])cc3)CC2)n[nH]1,12.9,2.3,4.2,8.4,5257,4.4,-3.0
COc1ccc(OCC2CCNCC2)cc1,-9.2,10.7,-6.6,1.0,3748,6.1,10.0
O=C(Nc1ccccc1)N1CCN(c2nc3ccccc3s2)CC1,-17.7,-8.7,-5.0,6.7,21122*,-3.8,-1.3
Cc1c(C(=O)NCc2cccnc2)oc2c1C(=O)CC(C)(C)C2,-30.9,-9.0,-0.3,7.9,21305*,-3.3,1.9
COc1cc(OC)cc(C(=O)NC(C(=O)N2CCc3ccccc3C2)C(C)C)c1 (centres undefined),-32.5,-1.4,-7.0,7.2,4982,4.8,4.4
O=C(O)Cc1nn(Cc2ccc(Cl)cc2)c(=O)c2ccccc12,-13.1,8.0,-7.3,9.4,3831,1.9,-5.1
COc1ccc(OC)c(Cc2nnc(CCC(=O)NC3CCCCCCC3)o2)c1,-26.2,3.9,15.6,-1.0,4514,7.8,-2.8
Cc1nc(N(C)C)c2sc(=S)n(Cc3ccccc3)c2n1,-15.5,1.1,-3.3,5.5,4431,1.9,6.8
CN1CCN(c2ccccc2NC(=O)c2ccc(N3CCCCC3)c([N+](=O)[O-])c2)CC1,-14.2,-5.1,2.7,12.6,4002,-8.8,21.7
Cc1ccc(Cl)cc1N(CC(=O)NC1CCCCC1)S(C)(=O)=O,-9.2,-2.2,-3.3,4.1,6747,1.4,-6.9
COC(=O)Cc1cc(=O)[nH]c(/N=C(\N)Nc2cccc(C)c2)n1,-22.2,.,.,.,4487,.,0.4
COc1cc(C#N)c(NS(=O)(=O)c2ccc3[nH]c(=O)sc3c2)cc1OC,0.1,9.0,-0.6,-2.2,4216,5.1,-6.4
CCc1cc(C)c(O)c(CC)n1,-11.3,2.1,7.2,12.9,3039,3.1,0.1
CC(C)c1ccc(NC2CCCN(C(=O)c3ccoc3)C2)cc1 (centres undefined),-4.9,3.7,2.4,-2.1,4433,0.7,-6.4
CCN(CC(=O)NCc1ccc(F)cc1)C(=O)C1CCN(S(=O)(=O)c2ccc(C(C)C)cc2)CC1,-26.0,2.5,1.7,1.0,?,-0.4,.
COc1ccc(CN2CCN(Cc3cc(=O)oc4cc(C)ccc34)CC2)c(OC)c1OC,-4.6,.,.,.,3960,.,0.8
COc1ccc(CN(C)C(=O)c2cccc(NC(=O)CC3SC(N4CCCCC4)=NC3=O)c2)c(OC)c1 (centres undefined),-22.3,9.2,-6.7,4.4,6162,3.1,.
COC(=O)c1[nH]c2cc(C)ccc2c1NC(=O)CN1CCN(c2ccccc2OC)CC1,-14.4,-4.0,1.6,21.1,2898,-4.9,0.7
Cc1cc(Br)ccc1OCC(=O)N1CCCCCC1,-5.1,2.9,.,.,4006,4.3,7.8
O=C(CN1CCCCC1)N/N=C/c1ccccc1OCc1ccccc1,-6.4,.,.,.,2477,.,-2.9
CC1CN(C)C(C)C/C1=N\Oc1ccc([N+](=O)[O-])cc1 (centres undefined),-19.6,.,.,.,2698,.,7.3
COc1ccc(C(=O)Nc2nnc(SCC(=O)NCC3CCCO3)s2)cc1OC (centres undefined),-0.3,0.2,5.7,10.7,5394,-2.2,-4.6
CC(C)c1ccc(NC(=O)C2CCN(C(=O)[C@@H]3Cc4ccccc4CN3)CC2)cc1,-21.5,11.0,3.9,-9.2,5958,-1.1,7.0
CN(C)C(Cc1ccccc1)C(=O)c1c[nH]c2ccccc12 (centres undefined),-18.8,-9.2,-8.6,0.4,3911,1.4,9.9
C=CCc1ccccc1Oc1cc(F)nc(N)n1,-19.8,3.6,-3.7,-4.5,3130,6.4,2.2
O=C(O)CCN1CCc2ccccc2C1c1ccncc1 (centres undefined),3.2,8.7,3.2,-4.1,4421,2.8,-0.6
Cc1cc(C(=O)NN=Cc2cc(N=Nc3ccccc3)ccc2O)n[nH]1,.,45.6,18.9,11.8,.,-7.4,.
Cc1ccc(CNC(=S)NCc2ccncc2)cc1,-29.1,4.8,17.2,14.7,4344,1.1,.
COc1ccc(OC)c(-c2cc(C(=O)N3CCCc4ccccc43)no2)c1,-7.2,-6.7,-0.9,2.8,8300,-2.4,4.7
CCn1c(=O)n(CC)c2cc(N3CCCC3)c(NC(=O)c3ccc(C)cc3)cc21,-13.4,-4.9,-7.3,15.5,5211,2.1,5.2
Cc1ccc(NC(=O)CS(=O)CC(=O)NC(C)CCc2ccco2)cc1Cl (centres undefined),-5.3,0.3,11.3,5.8,23396*,7.2,-1.5
CC1CN(C(=O)c2ccc(S(=O)(=O)Nc3cccc(C(F)(F)F)c3)cc2)CC(C)O1 (centres undefined),-26.5,0.2,-5.7,1.0,?,3.9,4.3
CCOc1ccc(OCCCCn2cnc3ccccc3c2=O)cc1,-7.6,2.2,16.1,13.1,3231,13.3,2.6
O=CN1CCc2scc[n+]2-c2ccccc21,-26.7,1.3,-2.6,4.8,5350,3.2,6.2

# Screens as filed in PubChem BioAssay.

# Compounds were not picked by outcome (roughly 3.9% active in at least one column).
